Source: PubChem (several laboratories)
Mtb H37Rv = M. tuberculosis H37Rv growth inhibitors, H37Rv strain (AID 1626); one-dose inhibition, % at 10 µM; IC50 in µM for titrated hits; M. tuberculosis H37Rv growth inhibition; higher % means a stronger effect; 220,000 tested, 0.95% active;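 active means confirmed in a dose series; inconclusive means inhibition above 80% but not taken into the dose series; inactive means below 80% or under 30% at every dose of the series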;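 further: bacteria incubated seven days before Alamar blue readout; 0% = bacteria only wells and 100% = bacteria with antibiotic wells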
YopH inh = YopH tyrosine phosphatase inhibitors, primary screen, biochemical, fluorescence Ex485/Em525. inhibition, %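 (about 10 µM by stock and volumes)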. 140,000 tested, 0.16% active. AID 898, 2007;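 active means inhibition of 50% or more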;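 further: controls were vehicle for no effect and minimum signal wells for full effect; inactives centre near -20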
Arbovirus anti = antivirals against arbovirus infection, primary screen, cell-based, full library, 10K replicate subset; arbovirus infection cell-based antiviral screen; inhibition, % at 10 µM; 200,000 tested, 0.37% active;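 active means inhibition from about 30%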;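 further: bluetongue infection of BSR cells; cell survival read as ATP light after 72 h; 0% = infected wells without compound and 100% = uninfected wells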
Mtb bLac sens = beta-lactam sensitization of Mtb H37Rv, H37Rv | 330,000 tested, 0.27% active | M. tuberculosis H37Rv growth with meropenem, percent inhibition; hits of this screen are not shown here | inhibition, % at 25 µM;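 active means about 74% or more and at least 40 points above the plate without the antibiotic, then above 30% in a dose series; inconclusive means first-round hits that could not be retested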;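 further: growth measured after seven days incubation then overnight dye step; 0% = bacteria only wells and 100% = bacteria with antibiotic; twin plates without the antibiotic show which effects depend on it; some results filed as inactive read as strong as hits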
RecA intein inh = Mtb RecA intein splicing inhibitors, primary screen, biochemical, fluorescence, HTS. Protein RecA (Mycobacterium tuberculosis (strain ATCC 25618 / H37Rv)), P9WHJ3. cell-free RecA intein splicing. inhibition, %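 (about 9 µM by stock and volumes)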. 290,000 tested, 0.75% active. AID 2221, 2009; in the data active means inhibition above about 30%; inconclusive means no clear call, values can overlap the other calls;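 further: 0% = vehicle wells and 100% = reference inhibitor control wells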
Target sequence (P9WHJ3 whole entry, looked up): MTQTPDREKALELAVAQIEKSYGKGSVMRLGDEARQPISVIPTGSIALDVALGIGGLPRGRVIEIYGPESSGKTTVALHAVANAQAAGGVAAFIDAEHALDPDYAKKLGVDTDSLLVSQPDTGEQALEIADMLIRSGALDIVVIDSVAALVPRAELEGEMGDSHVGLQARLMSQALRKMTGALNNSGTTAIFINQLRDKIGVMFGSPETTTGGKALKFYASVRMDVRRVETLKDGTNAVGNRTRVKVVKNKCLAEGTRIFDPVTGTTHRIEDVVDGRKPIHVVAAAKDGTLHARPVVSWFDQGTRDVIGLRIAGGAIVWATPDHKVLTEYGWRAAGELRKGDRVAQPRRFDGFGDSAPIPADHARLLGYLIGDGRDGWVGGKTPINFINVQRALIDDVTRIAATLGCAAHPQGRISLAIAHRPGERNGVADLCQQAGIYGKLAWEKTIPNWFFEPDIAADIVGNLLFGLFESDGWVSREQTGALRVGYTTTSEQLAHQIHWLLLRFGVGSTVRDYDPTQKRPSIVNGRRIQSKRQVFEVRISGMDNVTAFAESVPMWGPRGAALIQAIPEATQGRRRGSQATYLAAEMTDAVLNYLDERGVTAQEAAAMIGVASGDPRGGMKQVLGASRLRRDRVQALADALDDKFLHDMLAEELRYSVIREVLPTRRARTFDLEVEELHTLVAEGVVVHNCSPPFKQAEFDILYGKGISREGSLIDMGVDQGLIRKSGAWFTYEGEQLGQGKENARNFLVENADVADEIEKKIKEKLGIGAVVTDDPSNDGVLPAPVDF
Arbovirus anti repeat = also measured in Arbovirus anti; calls as there; inhibition, %; measured here: 10K subset replicate screen; many hits read low in the repeat;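 first of two repeat runs on a subset; 0% = infected and 100% = uninfected wells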
An asterisk follows results filed as active; ? = inconclusive; . = no result given. Not all compounds are listed; the hit share may differ from the screen's.

SMILES	Mtb H37Rv	YopH inh	Arbovirus anti	Mtb bLac sens	RecA intein inh	others
O=C(COc1ncnc2ccccc12)NCc1ccco1	-5%	.	1	-10	-0.6
Cc1ccc(CN=c2c([N+](=O)[O-])nn(-c3ccc(Cl)cc3)n2O)cc1	?	.	-21	100	0.5
O=C(CN1C(=O)CCSc2ccc(S(=O)(=O)N3CCCC3)cc21)NCc1ccccc1Cl	.	.	.	4	-7.7
COc1cc(/C=C(\NC(=O)c2ccccc2)C(=O)N2CC3CC(C2)c2cccc(=O)n2C3)cc(OC)c1OC (stereo unspecified)	0%	.	.	4	-2.7
COc1cccc(-c2nc3ccccc3s2)c1O	-1%	.	-2	-6	.
Cc1cc(Cl)c2ccccc2n1	13%	-20	0	-10	0.0
COc1ccccc1/C=C/CN1CCCC(CO)(CCc2ccccc2)C1 (stereo unspecified)	.	.	.	0	2.3
CCc1cc(CNC(=O)CCc2nnc(Cc3cccc(C)c3)o2)on1	-3%	.	0	4	-3.3
O=C(O)CCC1=C2c3ccccc3CCN2C(=O)CC1	-3%	-20	5	-14	-4.4
CCN(C(=O)COC(=O)c1ccc(Cl)c(N)c1)C1CCS(=O)(=O)C1 (stereo unspecified)	6%	.	3	-4	1.1
Cc1ccc(O)c(C(=O)CC(=O)c2cccc(F)c2)c1	62%	-8	2	99	-0.8	Arbovirus anti repeat=-1
CC(C)C[C@H](NC(=O)C1(c2ccccc2)CCN(C(=O)[C@H]2CSCN2C(=O)OC(C)(C)C)CC1)C(=O)O	20%	-13	6	-5	-1.3
CCn1c(CCCCc2n[nH]c(=S)n2CC)n[nH]c1=S	3%	.	3	-3	-0.7
O=C(O)/C=C/C(=O)Nc1ccc(Oc2ncnc3cc(Cl)ccc23)nc1	-13%	.	.	1	-0.2
COc1ccc(C(=S)N2CCCC2)cc1	-4%	11	4	-3	1.7
COc1ccc(/C=N/NC(=O)CSc2ccccc2)cc1OC	3%	-16	-8	-4	1.1
CCN(Cc1ccc(OC)c(COC)c1)CC1CCCN(CCc2cccc(OC)c2)C1 (stereo unspecified)	.	.	.	5	2.9
CC(C)(C)OC(=O)N1CCC(CNC(=O)Nc2ccccc2)CC1	0%	.	.	0	2.7
CN(c1ccccc1C(=O)N1CCCC1)S(C)(=O)=O	2%	-5	0	6	-8.4
Cc1ccc(C2=[N+]([O-])C(C)(C)CC2)cc1	-4%	-12	4	-1	-3.3
CCOC(=O)C1=C(C)NC(=O)NC1c1ccoc1 (stereo unspecified)	-5%	-45	16	-8	2.0
CCn1c(=O)c2cc(C(=O)NCCN(C)C)sc2c2ccccc21	.	.	.	-1	0.6
COc1ccc(C(=O)/C=C/Nc2ccc(S(=O)(=O)Nc3ncccn3)cc2)cc1	-1%	-12	4	9	-1.9
CC(=O)Nc1c(-c2ccccc2)nc2cc(C)ccn12	.	.	.	-6	5.1
CCOc1ccc(Cl)cc1C(c1c(C)[nH][nH]c1=O)c1c(C)[nH][nH]c1=O	.	.	.	6	97*
CCOc1ccc(S(=O)(=O)n2c(C)nc3ccccc32)cc1	-3%	-31	0	-4	.	Arbovirus anti repeat=2
CN(CC(=O)Nc1ccccc1Cl)C(=O)CSc1ncc(C(F)(F)F)cc1Cl	-6%	-17	-1	3	-0.8
CS(=O)(=O)N1CCCC(C(=O)Nc2cccc(F)c2)C1 (stereo unspecified)	.	.	.	4	-1.9
COc1cccc(Nc2nc(CC(C)=O)ns2)c1	-12%	5	-1	4	-4.0
Cc1nc([N+](=O)[O-])c(C(=O)O)n1C	2%	.	5	0	10
O=C(NC1CCCCC1)c1ccc(NS(=O)(=O)c2cccc3cccnc23)cc1	1%	.	-3	-5	2.4
Brc1ccc(-c2noc3c2-c2nc(-c4ccccc4)sc2CC3)cc1	-6%	.	.	-8	0.5
CCOCCCn1c(NN)nc2ccccc2c1=O	1%	.	-1	11	-5.1
Cc1ccc(C(=O)OC(C)CN2C(C)CCCC2C)cc1 (stereo unspecified)	.	.	.	-2	2.3
Cc1sc2ncnc(NCCCn3ccnc3)c2c1C	-3%	-43	6	-6	-0.1
CN(C(=O)c1ccc2nc(N)sc2c1)c1ccccc1	.	.	.	2	-0.7
CCCS(=O)(=O)c1nc(S(=O)(=O)c2ccc(C)cc2)c(N2CCN(CC)CC2)s1	.	.	.	8	1.3
Cc1ccc(CC(CC(=O)NCCc2ccc3c(c2)OCO3)C(=O)O)cc1 (stereo unspecified)	-12%	-46	-7	1	-0.8
CCOC(=S)SCC(=O)Nc1ncc(C)s1	.	.	.	-8	9.0
O=C(COc1ccc2ccccc2c1)Nc1cccnc1Cl	.	.	.	-7	2.4
CCOC(=O)c1cnc(-n2nc(C)cc2C)nc1NNc1nc(C)cc(C)n1	71%	.	.	95	-4.1
COc1ccc(NCc2nnc(SCC(=O)Nc3ccccc3OC)o2)cc1	?	-13	-3	15	-0.7
CCCCN(C)CCNC(=O)CCNC(=O)Cn1ccc2ccccc2c1=O	1%	.	9	-3	0.0
COC(=O)C1=C(C(=O)OC)[C@@H]2Nc3ccccc3[C@@]23C[C@@H](C(=O)OC)N(C(=O)NC2CCCCC2)C3=N1	-12%	.	.	-5	-1.3
Nc1ccc2c(c1)C(=O)Cc1ccccc1S2	-3%	-6	-2	5	1.4
COc1ccc(C(=O)CCC(=O)N2CCN(c3ccc(N4CCOCC4)nn3)CC2)cc1	-8%	-20	9	4	.	Arbovirus anti repeat=-1
O=C(Nc1cccc(C(=O)N2CCCCC2)c1)c1ccccc1Br	.	.	.	-15	1.0
O=C(Nc1nnc(-c2ccc3c(c2)OCCO3)o1)C1CCCCC1	>100µM*	.	-4	.	-4.8
CC(C)(Oc1ccc(CCNC(=O)c2ccc(-c3ccc(Cl)cc3)o2)cc1)C(=O)O	0%	.	12	2	4.9
O=C1CSCC(=O)N1Cc1ccc(Cl)cc1Cl	.	.	.	11	1.5
CCSc1nnc(Cc2cc(=O)[nH]c(=O)[nH]2)n1-c1ccc(Cl)cc1	1%	.	-6	3	2.8	Arbovirus anti repeat=1
Cc1cc(-c2ccc(C)c(S(=O)(=O)NCCCN3CCCCCC3)c2)on1	.	.	.	-5	-0.7
C=C(C)C(=O)N1CC2(CC(c3cccc(NC(=O)/C(C)=C\C)c3)=NO2)C[C@H]1C(N)=O (stereo partly specified)	-2%	.	.	-3	3.4
COc1cccc(C2=NOC(C(=O)NCC3CCCO3)C2)c1 (stereo unspecified)	-7%	-35	6	-9	3.9
O=c1[nH]c(SCc2ccc(Cl)cc2)nc2c1CCC2	.	-45	-1	-7	-0.9
COc1ccc(C2CC(c3ccc4ccccc4c3OC(C)=O)=NN2C(C)=O)cc1 (stereo unspecified)	6%	.	.	-5	0.2
Cc1sc(NC(=O)CCCCC(=O)Nc2sc(C)c(C)c2C(=O)O)c(C(=O)O)c1C	.	.	.	11	-12
O=c1c(Cl)nc2cc(Cl)ccc2n1CCNc1ncc(C(F)(F)F)cc1Cl	6%	-25	-31	100	67*
CCCOc1ccc(C2C(C(=O)c3ccc(C)o3)=C(O)C(=O)N2Cc2ccco2)cc1OCC (stereo unspecified)	.	.	.	?	5.1
COc1ccccc1CNC(=O)c1cc(S(=O)(=O)N2CCCC2)cn1C	.	.	.	4	-2.1

The final five compounds of the section above are carried over, then new ones follow.
SMILES	Mtb H37Rv	YopH inh	Arbovirus anti	Mtb bLac sens	RecA intein inh	others
COc1ccc(C2CC(c3ccc4ccccc4c3OC(C)=O)=NN2C(C)=O)cc1 (stereo unspecified)	6%	.	.	-5	0.2
Cc1sc(NC(=O)CCCCC(=O)Nc2sc(C)c(C)c2C(=O)O)c(C(=O)O)c1C	.	.	.	11	-12
O=c1c(Cl)nc2cc(Cl)ccc2n1CCNc1ncc(C(F)(F)F)cc1Cl	6%	-25	-31	100	67*
CCCOc1ccc(C2C(C(=O)c3ccc(C)o3)=C(O)C(=O)N2Cc2ccco2)cc1OCC (stereo unspecified)	.	.	.	?	5.1
COc1ccccc1CNC(=O)c1cc(S(=O)(=O)N2CCCC2)cn1C	.	.	.	4	-2.1
Cc1cccc(-c2noc(CN(C)C(=O)c3ccoc3C)n2)c1	.	.	.	4	1.7
O=C(NC(=S)NCc1ccccc1)C1CCCCC1	8%	-33	7	0	-4.0
COc1cc2c(cc1OC)C1Cc3ccc(OC)c(OC)c3CN1CC2 (stereo unspecified)	-12%	-42	5	13	0.3
Cc1ccc(CCNC(=O)C23C[C@H]4C[C@@H](C2)CC(n2nnc(C)n2)(C4)C3)cc1	5%	.	2	-7	4.3
COc1ccc(C2=NN(C(=O)c3ccncc3)C(c3ccccc3O)C2)cc1 (stereo unspecified)	.	.	.	2	0.0
Cc1nnc(NC(=O)c2ccccc2Oc2ccccc2)s1	15%	.	8	1	1.3
Cc1cccc(C)c1NC(=S)Nc1ccccc1C(=O)NCc1ccco1	-3%	-3	-1	-4	-2.3
O=C(NCc1cccnc1)c1ccc(Cn2cc(C(F)(F)F)ccc2=O)cc1	-5%	.	11	1	0.3
CCCn1c(C)nc2cc(Cl)c(N3CCN(c4nc(-c5ccc(C)cc5)cs4)CC3)cc21	.	.	.	98	-2.3
O=C(/C=C/c1ccc(Cl)cc1Cl)NCCN1CCOCC1	6%	-6	4	-10	-2.1
Cc1ccc2oc(=O)c3cc(C(=O)NCCCN4CCCC(C)C4)sc3c2c1 (stereo unspecified)	.	.	.	0	0.2
O=C(NCCc1ccc(Cl)cc1)C1CCN(c2ncccn2)CC1	-4%	.	-3	-10	0.5
Cc1cc2oc(=O)cc(CSc3nc(N)cc(N)n3)c2cc1C(C)C	-3%	0	4	3	1.0
COc1cc(C2(c3ccc(O)c(OC)c3)C(=O)N(C)c3ccc(C)cc32)ccc1O	.	.	.	1	9.7
CC(C)n1ncc2c(C(=O)O)cc(C3CC3)nc21	8%	.	.	10	-0.5
O=C(CSc1nnc2ccc(-c3ccccn3)nn12)Nc1ccc(F)cc1F	.	.	.	-2	-6.6
Cc1ccc(S(=O)(=O)NCCCCCC(=O)Nc2c(C)n(C)n(-c3ccccc3)c2=O)cc1	1%	.	-3	-3	0.9
Cn1c(SCC(=O)NCC2CCCO2)nc2c([nH]c3ccccc32)c1=O (stereo unspecified)	4%	22	2	-1	0.0	Arbovirus anti repeat=2
COc1ccc(N2CCN(CCNC(=O)Nc3cccc(C)c3C)CC2)cc1	.	.	.	-7	-0.4
COc1ccc(C(=O)NCC2(c3ccccc3)CCOCC2)cc1	-6%	.	.	-6	-0.7
Cc1ccc(S(=O)(=O)Nc2ccncc2)c(C)c1	.	.	.	1	0.2
OCc1ccc(-c2ccccc2)c(-c2ccccc2)c1	.	.	.	8	8.5
Cc1cccc(N/C(N)=N/c2nc(C)cc(C)n2)c1	2%	-46	-7	-1	1.1
COCC1CCCCN1C(=O)c1cccc(OC2CCN(S(C)(=O)=O)CC2)c1 (stereo unspecified)	.	.	.	-1	-1.3
Cc1ccc([C@@H]2[C@@H]3C(=O)N(C)C(=O)[C@@H]3[C@]3(Cc4ccccc4)C(=O)N(Cc4ccccc4)CC(=O)N23)o1	.	.	.	1	-2.7
CN1CCC(OC(=O)COc2ccccc2)CC1	-6%	-10	13	3	0.0
CN(C(=O)CS(=O)(=O)c1cn(CC(=O)N2CCCC2)c2ccccc12)c1ccccc1	.	.	.	2	0.7
O=C(CSc1nnc(NC(=O)c2ccccc2Cl)s1)Nc1ccc2c(c1)oc1ccccc12	85%	-19	-9	89	3.6
CCOC(=O)NC(Nc1cc(C)ccn1)(C(F)(F)F)C(F)(F)F	1%	-50	-1	-10	-0.1	Arbovirus anti repeat=0
CCCNC(=O)Nc1nccs1	-4%	-13	-2	6	2.2
COc1ccc(NC(=O)c2cccc(OC(F)F)c2)cc1Cl	0%	-8	-15	-6	-0.3
c1ccc(N2CCOCCOCCOCCOCCOCC2)cc1	-5%	.	-4	10	-5.9
COc1ccc(-n2c(C)cc(C(=O)CCl)c2C)cc1	-6%	.	-32	98	34*
CCCCNC(=O)COC(=O)c1ccc(Cl)c(S(=O)(=O)N2CCCC2)c1	2%	-19	7	-5	-0.1
O=C(c1ccco1)N1CCCN(Cc2cn[nH]c2-c2ccc(-c3ccccc3)cc2)CC1	-4%	.	-32	5	3.5
CC1(C)NC(=O)N(CC(=O)Nc2nc(-c3ccc(F)cc3)cs2)C1=O	.	-20	-7	7	0.2
Cc1ccc(NC(=O)[C@@H]2CCCN2S(=O)(=O)c2ccccc2C(F)(F)F)cc1S(=O)(=O)N1CCOCC1	2%	-34	-10	-3	-3.3
